High-throughput results: PubChem, National Center for Advancing Translational Sciences (NCATS)
ClpP mod = qHTS Assay for Activators of ClpP. ATP-dependent Clp protease proteolytic subunit (Bacillus subtilis (strain 168)), P80244. purified B. subtilis ClpP, FRET peptide cleavage, 20 min. Potency, µM (titrated, usually from 57.5 µM), for inactives: at the top dose activity change, negative = active. 340,000 tested, 1.9% active; active = well fitted falling curve with a large enough effect; inconclusive = small, poorly fitted or top-dose-only effect; inactive = no such curve, though single readings can be large or run the other way; note: potency is the fitted concentration of half-maximal effect; the source files actives as falling curves though it sought activators and does not explain the sign; nearly all actives have a fitted effect of over 65% in size; many hits overshoot -100%
Target sequence (P80244 whole entry, looked up): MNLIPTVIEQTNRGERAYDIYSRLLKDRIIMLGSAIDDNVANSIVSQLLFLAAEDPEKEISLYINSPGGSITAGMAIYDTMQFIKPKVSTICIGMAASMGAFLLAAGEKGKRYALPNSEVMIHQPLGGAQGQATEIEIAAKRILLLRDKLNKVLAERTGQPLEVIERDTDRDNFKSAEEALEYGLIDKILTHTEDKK
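Buffer: 100 mM Tris/HCl pH8, 100 mM KCl, 0.05% low protease BSA, 2.5% glycerol, 0.01% Tween-20. ClpP 10 microg/mL final; 20 min RT; delta FRET normalized to ADEP and DMSO controls.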
gsp antag = antagonizes gsp, the McCune-Albright syndrome mutation; 340,000 tested, 0.4% active; Potency, µM (doses to about 76.9 µM), inactives show at the top dose activity change, negative = inhibition, most hits filed as inhibitors; AID 624288; gsp-mutant cells, cAMP HTRF, 30 min; control for the full effect not named in the record; active = falling curve of any shape with a large fitted effect; inconclusive = falling curve, mostly with a smaller effect; inactive = flat or rising curve; cell line not stated here;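 note: intracellular cAMP measured with PDE inhibitor Ro 20-1724 present during compound exposure; potency is the fitted concentration of half-maximal effect; % is set by controls: 0 for no effect and ±100 for the full control effect; nearly all actives have a fitted effect of over 65% in size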
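HTRF cAMP measurement after 30 min RT detection following 30 min, 37C compound treatment alongside […] (added as 300 uM solution) in G418-selected cells seeded at 2000/well and grown 16–24 h.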
Menin MLL FP FL = inhibitors of human menin-MLL interaction, wild-type MLL peptide; FP activity change, % at 61.4 µM; Fluorescence polarization, fluorescein-MLL peptide displacement from menin; 290,000 tested, under 10 active; inconclusive = falling polarisation curve, or a change in total fluorescence; inactive = total fluorescence flat and polarisation flat or rising; no compound was filed as active; the % refers to the polarisation; negative = inhibition;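 note: % of control where 0% means no effect; inhibitors lower the polarisation; unlabelled MLL peptide was the positive control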
CtBP-E1A inh = CtBP/E1A binding inhibition | AlphaScreen GST-E1A/His-CtBP binding, 1536-well; hits give low values; control for the full effect not named in the record | activity change, % (no concentration beside the values) | 340,000 tested, 0.49% active; in the data active means activity change below about -65%; inconclusive means about -30% to -65%; inactive means above about -30%; note: % is set by controls: 0 for no effect and ±100 for the full control effect; compound concentration not given in the record
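In 5 uL wells, 23 nL compound meets equimolar GST-E1A and His-CtBP (5X stock 125 nM each) for 2 h, 37 °C. Beads (5X, 50 ug/mL) then 1 h, 37 °C, dark.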
Sfp PPTase inh = inhibitors of Bacillus subtilis Sfp phosphopantetheinyl transferase | Q9F4F7 | Biochemical Sfp PPTase activity, qHTS | Potency, µM, inactives show max response, negative = inhibition, hits mostly inhibitors | 310,000 tested, 3.5% active | AID 1490; active = well fitted inhibition curve with a large enough effect; inconclusive = small, poorly fitted or top-dose-only effect, or another doubt; inactive = no such curve, though single readings can be large or run the other way;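 note: the enzyme is Sfp with the accession as filed and its product quenches rhodamine fluorescence; potency is the fitted concentration of half-maximal effect; 0% = enzyme reaction without inhibitor and -100% = no enzyme wells; top concentration of the series not given in the record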
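Reaction rates are the 30-min fluorescence difference (ex 525, em 598 nm) in wells containing 15 nM Sfp, 5 uM rhodamine-CoA and 12.5 uM BHQ-2-YbbR at pH 7.6 with 10 mM MgCl2.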
gsp ag = activates gsp, the McCune-Albright syndrome mutation; gsp mutant cells, cAMP HTRF, 30 min; control for the full effect not named in the record; Potency, µM (titrated, usually from 76.9 µM), inactives show top-dose activation (cAMP increase), most hits filed as activators; 340,000 tested, 0.13% active; AID 624287; active = well fitted activation curve with a large enough effect; inconclusive = small, poorly fitted or top-dose-only effect, or another doubt; inactive = no such curve, though single readings can be large or run the other way; cell line not stated here;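 note: phosphodiesterase inhibitor Ro 20-1724 added with compounds to block cAMP breakdown; potency is the fitted concentration of half-maximal effect; nearly all actives have a fitted effect of over 60% in size; about a fifth of the inactives were tested at one dose only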
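Cells in DMEM/10% FBS with G418 were pretreated with compounds in DMSO plus […] (300 uM stock) for 30 min at 37C. cAMP was measured by HTRF (cAMP-d2 plus anti-cAMP antibody-K) after 30 min at room temperature.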
TRPV1 potentiator = human TRPV1 potentiation; Q8NER1; TRPV1-expressing cells, Fluo-8 calcium influx, capsaicin EC20 potentiation; host cell line not named in the record; control for the full effect not named in the record; potentiation, % at 8.33 µM; 320,000 tested, 0.02% active; AID 540277; active means potentiation above 80%; inconclusive means 30% to 80%; inactive means below 30%; note: 0% is about no effect
Target sequence (Q8NER1 whole entry, looked up): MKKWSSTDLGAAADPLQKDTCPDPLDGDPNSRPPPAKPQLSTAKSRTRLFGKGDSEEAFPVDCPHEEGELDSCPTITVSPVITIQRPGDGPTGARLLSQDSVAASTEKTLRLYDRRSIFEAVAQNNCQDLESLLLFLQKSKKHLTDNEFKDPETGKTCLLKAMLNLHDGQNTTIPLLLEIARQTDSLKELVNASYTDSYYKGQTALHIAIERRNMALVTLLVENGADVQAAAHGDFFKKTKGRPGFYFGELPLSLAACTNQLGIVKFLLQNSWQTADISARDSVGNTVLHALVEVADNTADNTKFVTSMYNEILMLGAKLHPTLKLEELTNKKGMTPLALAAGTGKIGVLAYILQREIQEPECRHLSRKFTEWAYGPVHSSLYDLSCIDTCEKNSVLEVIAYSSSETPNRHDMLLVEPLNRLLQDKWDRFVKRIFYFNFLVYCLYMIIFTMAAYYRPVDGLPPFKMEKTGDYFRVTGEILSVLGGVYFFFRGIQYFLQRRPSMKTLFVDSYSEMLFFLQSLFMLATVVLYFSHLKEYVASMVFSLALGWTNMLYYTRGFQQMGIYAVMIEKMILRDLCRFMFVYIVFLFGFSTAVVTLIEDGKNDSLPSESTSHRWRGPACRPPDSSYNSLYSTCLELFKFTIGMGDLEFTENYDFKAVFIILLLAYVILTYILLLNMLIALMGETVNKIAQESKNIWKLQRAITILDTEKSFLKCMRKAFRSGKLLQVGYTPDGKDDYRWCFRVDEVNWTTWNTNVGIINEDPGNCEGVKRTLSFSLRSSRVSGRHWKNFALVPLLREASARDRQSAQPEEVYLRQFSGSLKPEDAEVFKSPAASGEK
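TRPV1-expressing cells were cultured overnight at 35.5C and loaded with Fluo-8 calcium dye for 40 to 90 min at room temperature. After a 10 s baseline, compound was added and calcium influx was read kinetically for 3 min (ex 480/em 520 nm).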
* = called active by the depositor; ? = inconclusive; . = not tested or not shown; [ ] = another dose, or the depositor's remark.

SMILES	ClpP mod	gsp antag	Menin MLL FP FL	CtBP-E1A inh	Sfp PPTase inh	gsp ag	TRPV1 potentiator
c1ccc(Cc2ccc(OCCN3CCOCC3)cc2)cc1	1.9%	5%	-0.5	2	-6%	15%[15.4 µM]	-10
CCOc1cc(S(=O)(=O)N2CCN(C(=O)c3ccco3)CC2)ccc1F	-2.1%	5%	-0.5	.	10%	-29%	-11
CCOC(=O)CCC(=O)N1CCOCCN(C(=O)CCC(=O)OCC)CCOCC1	-0.8%	-2%	0.6	4	11%	-72%[inhibitor]	3
CCCOc1ccc(-c2cc3onc(-c4ccccc4)c3c(=O)n2C)cc1	-2.4%	-5%	.	7	.	.	.
O=C(CCCN1C(=O)/C(=C/c2cccs2)SC1=S)Nc1cc([N+](=O)[O-])ccc1O	1.4%	?	.	-4	15%	-8%	0
CCCCn1c(N)c(N(CC(C)C)C(=O)C2CSC3(C)CCC(=O)N23)c(=O)[nH]c1=O (configuration not stated)	.	4%	.	8	.	24%[15.4 µM]	15
CCN(CC)c1nc(N)c2c(N)n(-c3ccccc3C)c(=S)c(C#N)c2c1C#N	2.7%	?	5.9	?	?	-31%[inhibitor]	-9
O=C(N/N=C/c1ccccn1)c1cccc(S(=O)(=O)N2CCCC2)c1	-2.6%	-1%	0.1	.	-4%	14%	-10
O=C(CSc1nc(C2CC2)nc2ccccc12)NCc1ccc2c(c1)OCO2	.	.	0.7	.	-4%	.	-1
CN(/N=C/c1cc(Br)cc(Br)c1O)c1cccc(C(F)(F)F)n1	1.5%	-17%	-2.4	0	3%	-19%[15.4 µM]	-7
Cc1cccc(NC(=O)C(C)C(=O)c2ccccc2)c1 (configuration not stated)	2.2%	5%	-1.6	.	8%	-11%	-24
COc1ccccc1N(CC(=O)NC1CCCC1)C(=O)CCC(=O)Nc1ccccn1	.	-26%	-0.3	-1	16%	22%[15.4 µM]	5
CC(C)OP(=O)(c1ccc(N(C)C)cc1)C(O)c1ccccc1F (configuration not stated)	-6.4%	9%	0.9	1	13%	-94%[inhibitor]	-4
Cc1cccc(C(=O)N/N=C/c2ccc(OC3CSC3)cc2)c1	3.9%	-3%	3.5	9	17%	-13%	-19
CC(=O)NC(Cc1ccccc1)C(=O)NC1CCN(c2ncccc2[N+](=O)[O-])CC1 (configuration not stated)	-4.4%	-2%	-0.1	7	-10%	11%	1
O=C1OC(N2C(=O)CC[C@H]2C(=O)Nc2ccc3c(c2)OCO3)c2ccccc21 (some centres not stated)	-1.8%	-6%	4.3	3	18%	.	-11
Cc1nc2ccc(NC(=O)CCC3CCCC3)cc2s1	.	-7%	1.4	-3	0%	9%[15.4 µM]	-10
CCn1c2ccccc2c2cc(NC(=O)CCCN3C(=O)CCC3=O)ccc21	?	-8%	0.4	-3	-3%	12%	?
Cc1cc(C)n(-c2nc3ccccc3nc2Nc2ccc(CC(=O)O)cc2)n1	-3.8%	-23%	-1.0	8	13%	-58%[inhibitor]	4
CO[C@H]1C=CO[C@@]2(C)Oc3c(C)c(O)c4c(O)c(c(C=NN5CCN(C)CC5)c(O)c4c3C2=O)NC(=O)C(C)=CC=C[C@H](C)[C@H](O)[C@@H](C)[C@@H](O)[C@@H](C)[C@H](OC(C)=O)[C@@H]1C	0.3%	?	?	-27	?	.	-9

An excerpt from above in order of formula weight, largest number first.
SMILES	ClpP mod	gsp antag	Menin MLL FP FL	CtBP-E1A inh	Sfp PPTase inh	gsp ag	TRPV1 potentiator
CCN(CC)c1nc(N)c2c(N)n(-c3ccccc3C)c(=S)c(C#N)c2c1C#N	2.7%	?	5.9	?	?	-31%[inhibitor]	-9
CCCOc1ccc(-c2cc3onc(-c4ccccc4)c3c(=O)n2C)cc1	-2.4%	-5%	.	7	.	.	.
Cc1cccc(C(=O)N/N=C/c2ccc(OC3CSC3)cc2)c1	3.9%	-3%	3.5	9	17%	-13%	-19

Going on with the list.
SMILES	ClpP mod	gsp antag	Menin MLL FP FL	CtBP-E1A inh	Sfp PPTase inh	gsp ag	TRPV1 potentiator
Nc1ccccc1C(=O)NNc1ncc(C(F)(F)F)cc1Cl	?	-1%	1.9	?	5%	3%	2
N=C1C(c2ccccc2)=C(O)CN1NC(=O)c1ccc(Cl)cc1	.	9%	3.6	0	16%	2%[15.4 µM]	?
CCOc1ccc(C(C)=O)cc1NC(=O)/C=C\C(=O)O	.	14%	-6.7	7	12%	?	0
COc1ccc(S(=O)(=O)N(C(=O)c2ccncc2)c2ccc3oc4c(c3c2)CCCC4)cc1	-2.3%	-14%	1.9	29	7%	-8%	-5
CCn1c(/C=C/Nc2ccccc2)[n+](CC)c2ccc(Cl)cc21	-6.5%	3%	3.2	5	4%	0%	8
Cc1ccc(N2CC(O)CSC2=Nc2ccccc2)cc1 (configuration not stated)	-0.1%	.	.	-15	.	-34%[inhibitor]	.
COc1cc(-n2c(=O)c3ccccc3n(CC(=O)c3ccc(Br)cc3)c2=O)cc(OC)c1OC	-1.0%	7%	4.0	-1	14%	-2%	-1
COc1cccc(-c2nnc(N)o2)c1	4.1%	6%	-4.3	.	10%	-37%[inhibitor]	6
O=C(/C=C/c1ccccc1)N(c1ccccn1)C1CCCCC1	-4.7%	-7%	2.9	-1	15%	-5%	-16
CC(C)CCNC(=O)NC(=O)CN1C(=O)NC2(CCCCC2)C1=O	1.7%	6%	1.2	0	11%	-20%	-7
CCOCCCNC(=O)C(NC(=O)c1ccc(=O)[nH]c1)c1ccc(Cl)cc1 (configuration not stated)	1.2%	9%	8.4	2	-18%	?	8
COc1ccc(NC(=O)COc2ccc(/C=N/O)cc2OC)cc1	.	1%	-2.1	2	7%	-1%[15.4 µM]	12
Cc1cc(N=NC(=O)c2ccccc2)ccc1O	-3.3%	-10%	-1.0	.	50µM*	4%	-12
O=C(Cn1cc(SCc2ccccc2Cl)c2ccccc21)N1CCOCC1	0.7%	?	-2.5	-5	-10%	-4%	-14
COCCn1c(SCC(=O)NCC2CCCO2)nc2c(c1=O)SCC2 (configuration not stated)	-0.6%	-17%	0.7	-5	11%	5%	-5
COc1cc(NC(=O)[C@H](C)NC(=O)N2CCn3c2nc2ccccc23)cc(OC)c1	-2.6%	-4%	.	0	-1%	-6%	13
Cc1ccc(SCC(=O)Nc2cccc(C)c2)cc1	-0.2%	0%	-0.3	0	0%	?	-5
Cn1c(=O)c2c(nc(CN3CCOCC3)n2CCN2CCOCC2)n(C)c1=O	-3.3%	-4%	1.1	0	1%	17%	20
O=C(O)CCCNc1n[nH]c(=O)[nH]c1=O	.	10%	-1.8	4	-11%	-4%	9
C=CCc1cc(Cl)ccc1OCCCNC(C)C	-0.1%	14%	1.6	9	-20%	-12%[15.4 µM]	-3
O=C(NCc1ccccn1)c1ccccc1-c1ccccc1	.	3%	-5.2	-7	21%	31%	-7
CCCC(O)(c1ccc(OC)cc1)C(CN1CCOCC1)c1ccccc1 (configuration not stated)	.	5%	1.3	2	2%	?	5
O=C1CSC(=S)N1c1cccc(F)c1	-0.5%	5%	37[activator]	1	-7%	22%	0
NC(=O)c1ccc(NC(=O)COC(=O)c2ccccc2Nc2ccccc2)cc1	.	11%	-1.6	8	?	-5%	-2
O=C(COC(=O)c1ccco1)NC12CC3CC(CC(C3)C1)C2	0.4%	4%	.	0	.	6%[15.4 µM]	.
COc1ccccc1NC(=O)C1CC(C(C)C)OC1=O (configuration not stated)	.	10%	.	2	.	-5%[15.4 µM]	.
Cc1ccc(-c2nc(C)sc2CC(=O)Nc2nnc(C)s2)cc1	?	-14%	0.9	6	-6%	5%[15.4 µM]	11
CN(Cc1nc(-c2cnccn2)no1)CC1CCN(Cc2ccccc2)CC1	-1.4%	14%	3.2	2	-5%	14%	0
Cc1nonc1OCCNCc1c(C(=O)N2CCCCCCC2)nc2ccc(Cl)cn12	-4.2%	-1%	?	.	-10%	1%	11
COc1ccc(CNC(=O)c2ccc3c(=O)n4c(nc3c2)CCCCC4)cc1OC	?	-13%	.	-1	.	-47%[inhibitor]	-5
COc1ccc(NC(=O)c2c(-c3ccccc3)noc2C)c(OC)c1	0.0%	3%	-0.2	6	7%	2%	8
Cc1cc(C)cc(Nc2ccc(C(=O)O)cc2[N+](=O)[O-])c1	0.3%	?	-4.6	2	17%	-6%[15.4 µM]	-11
CCC(C)NS(=O)(=O)c1ccc(NC(=O)CCC2CCCCC2)cc1 (configuration not stated)	0.3%	12%	1.1	1	10%	17%	-6
CCOc1ncccc1C(=O)OCC(=O)N1CCN(S(=O)(=O)c2ccccc2)CC1	0.2%	7%	-0.2	-1	11%	-9%	-2
Cc1c(Cl)cccc1NC(=O)CC(NCCN1CCOCC1)C(=O)O (configuration not stated)	0.4%	7%	.	12	.	-4%	.
Oc1ccc(CCc2ccccn2)cc1	-1.7%	.	.	-4	.	?	.
CC1=C(C(=O)Nc2ccccc2)C2(CCCCC2)C(C(N)=O)C(=S)N1 (configuration not stated)	2.9%	10%	4.7	-1	-9%	-9%	15
NC(=O)CCCc1nc(-c2ccccc2)no1	.	-3%	-1.9	4	12%	-5%[15.4 µM]	-6
COc1cc(C(=O)OCC(=O)N2CCC(C)CC2)cc2c1OCCO2	-8.1%	-6%	.	.	.	20%	-8
COc1ccc(-n2nnc3c(=O)n(CC(=O)NCC4CCCO4)cnc32)cc1 (configuration not stated)	-5.1%	35%[activator]	1.1	7	13%	7.9µM*	4
Cc1ccccc1OCCn1nc(C(=O)O)c2ccccc2c1=O	-0.9%	-12%	-1.5	-4	-13%	-41%[inhibitor]	-4
CCCCC1CCC(C(=O)N(C)CC(=O)Nc2cccc(F)c2)CC1 (configuration not stated)	-2.2%	-11%	.	-6	9%	-25%	-4
Cc1ccc(S(=O)(=O)N(CC(=O)N/N=C\c2cccs2)c2cccc3cccnc23)cc1	-2.9%	-17%	2.7	-6	-5%	-8%	-6
NC(=O)C1CCN(c2oc(-c3ccccc3F)nc2S(=O)(=O)c2ccc(Cl)cc2)CC1	0.3%	?	2.5	0	?	4%	14
c1ccc(-c2cc3n(c2)CCc2ccccc2-3)cc1	?	0%	6.9	-6	9%	2%	-9
COc1ccc(C2CC(c3ccc4ccccc4c3)=NN2C(=O)CN2C(=O)CCC2=O)cc1 (configuration not stated)	.	-9%	-0.9	-19	-18%	14%	11
CC(=O)c1c(C)nn(CC(O)COc2ccc3c(c2)CCC3)c1C (configuration not stated)	-0.7%	?	-1.1	-11	10%	-23%	2
